Screening results (PubChem)
UCH37 DUB inh = inhibitors of human deubiquitinating enzyme UCH37 | purified proteasome/UCH37, Ub-AMC cleavage fluorescence | 330,000 compounds, 0.33% hits | AID 588478 | inhibition, % (concentration not given with the values) | Q9Y5K5;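 active = mean of two replicates above 20%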;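 also: 0% = compound-free wells with enzyme and 100% = wells lacking proteasome; stock transfer was 100 nL into about 20 µL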
Target sequence (Q9Y5K5 whole entry, looked up): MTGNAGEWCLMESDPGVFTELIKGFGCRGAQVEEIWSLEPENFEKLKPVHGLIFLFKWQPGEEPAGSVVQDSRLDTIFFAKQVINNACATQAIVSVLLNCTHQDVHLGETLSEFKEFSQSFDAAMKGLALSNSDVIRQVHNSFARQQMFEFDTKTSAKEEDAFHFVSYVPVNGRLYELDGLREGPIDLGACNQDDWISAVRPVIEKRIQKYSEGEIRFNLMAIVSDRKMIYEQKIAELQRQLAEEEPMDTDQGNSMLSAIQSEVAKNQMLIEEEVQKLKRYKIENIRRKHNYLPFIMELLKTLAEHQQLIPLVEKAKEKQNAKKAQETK
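system = Proteasome-associated human UCH37 deubiquitinase | amount = 0.15 nM proteasome as dispensed | medium = pH 7.4 Tris-HCl (50 mM) with ovalbumin, ATP-MgCl2, DTT | incubation = 30 min preincubation with enzyme, 25 min cleavage at room temperature | detection = AMC fluorescence 355/460 nm | read-out basis = percent inhibition | controls = no-proteasome and no-compound wells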
E coli growth = inhibitors of Escherichia coli growth; AID 1053175; OD600 absorbance (test concentration not listed); 330,000 compounds, 0.21% hits; OD600, 23 h; stronger effect = lower value;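 active = OD600 absorbance below the run mean of sample wells minus 3.6 SD, in any replicate, cut at about 0.56 in these data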;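 also: stock transfer was 300 nL into about 60 µL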
B2AR ag = agonists of human beta-2 adrenergic receptor inducing internalization; response, % (concentration not given with the values); 340,000 compounds, 0.43% hits; P07550; Am2.2-beta2AR cells, FAP receptor internalization, flow cytometry; reference of the scale not given here;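 active = response above a set limit, near 3 SD of response in nonfluorescent compounds, cut at about 42% in these data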;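 also: stock transfer was 100 nL into about 11 µL; a reference agonist was the positive control; negative values mostly stem from fluorescent compounds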
FGF22 binding = binders of recombinant human FGF22 by thermal shift; Q9HCT0; SYPRO orange fluorescence; percent of sucrose octasulfate shift, DMSO zero; calls only at 9.99 µM; 340,000 compounds, 1.5% hits;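 active = melting point raised past a set limit in the mean and every replicate; inconclusive = no clear call; three in four hits are not shown here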
Target sequence (Q9HCT0 whole entry, looked up): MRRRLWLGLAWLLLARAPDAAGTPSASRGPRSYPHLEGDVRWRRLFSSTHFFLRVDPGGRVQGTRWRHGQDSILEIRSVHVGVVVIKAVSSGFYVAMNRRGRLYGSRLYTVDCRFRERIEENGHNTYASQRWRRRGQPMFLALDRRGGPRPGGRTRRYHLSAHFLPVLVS
LANA-H2B inh = blocks KSHV LANA binding to histone H2A/H2B | cell-free LANA-H2A/H2B peptide, fluorescence polarization | inhibition, % (no concentration beside the values) | 320,000 compounds, 0.6% hits; in the data active = inhibition mostly above about 10%, no sharp cut-off; inactive = mostly below about 6.7%;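 also: stock transfer was 7.5 nL into about 10 µL; 0% = median of vehicle wells and 100% = median of positive control wells; one replicate is shown; the record names a cut of 25% in any replicate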
HNF4A DNA FP = change in binding of human HNF4 alpha to DNA; HNF4a-FITC DNA binding, fluorescence polarization, 1 h; activity change, % at 10 µM; AID 1224865; P41235; 360,000 compounds, 0.3% hits; in the data active = activity change above about 30%, passing the limit was not always enough;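 also: controls were the assay level and a saturating level of protein; the project sought stronger binding though the title names inhibitors; some compounds called inactive have numbers as strong as hits; positive values seem to mean higher polarization but the record does not say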
ALR inh = human ALR oxidase inhibition via reduced H2O2; purified ALR, DTT oxidation, H2O2 HRP-luminol luminescence; inhibition, % (test concentration not listed); 290,000 compounds, 3.8% hits;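 active = mean and each replicate at 75% or more; inconclusive = only one of the two met; inactive = neither met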;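 also: stock transfer was 7.5 nL into about 7.5 µL; 0% = neutral wells and 100% = wells with inactivated enzyme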
Target sequence (P55789 whole entry, looked up): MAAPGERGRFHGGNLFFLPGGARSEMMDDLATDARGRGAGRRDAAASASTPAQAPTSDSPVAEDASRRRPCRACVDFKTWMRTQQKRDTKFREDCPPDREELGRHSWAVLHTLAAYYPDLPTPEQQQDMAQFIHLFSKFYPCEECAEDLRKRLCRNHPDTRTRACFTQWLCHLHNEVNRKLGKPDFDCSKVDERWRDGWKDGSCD
The depositor's hits bear a star; i = inactive; u = inconclusive; x = not tested or not shown; + = active, no number.

Every second line gives: UCH37 DUB inh	E coli growth	B2AR ag	FGF22 binding	LANA-H2B inh	HNF4A DNA FP	ALR inh
> O=C(NCc1ccccc1)c1cccc(NC(=O)C2CCCCC2)c1
 : x	x	5	i	x	0.5	x
> Cc1ccccc1-c1nnn(CC(=O)Nc2ccc3c(c2)OCO3)n1
 : 3.8	0.67	-2	i	-0.5	-0.1	0
> COc1cccc(CN2CCN(S(=O)(=O)c3ccc(NC(C)=O)cc3)CC2)c1OC
 : 0.3	0.71	-7	x	-3.0	5.8	-4
> Clc1ccc(N2CCOCC2)nn1
 : -0.2	0.62	5	i	1.4	2.7	-3
> COC(=O)c1ccc(C(=O)OC)c(=O)[nH]1
 : -497	0.64	16	i	2.0	2.8	4
> CCOC(=O)CN1N=C(/C=C/c2ccc(C)cc2)CCC1=O
 : 4.8	0.69	7	x	-0.6	3.0	-8
> COc1ccccc1CCNC(=O)C(=O)NCC1OCCN1S(=O)(=O)c1ccc(Cl)cc1 (stereo unspecified)
 : 1.8	0.81	-16	i	1.0	4.5	x
> CCN(CC)CCCn1c2c(c(SCC(=O)Nc3cc(C)on3)nc1=O)CCC2
 : x	x	0	i	-2.1	3.0	11
> Cc1c(Cl)cccc1N/C(SCC(=O)N1CCCCCC1)=C(/C#N)c1nc2ccccc2s1
 : 1.0	x	-7	x	-3.2	3.5	2
> CCC(C)Sc1nc2ccccc2n1CC(=O)O (stereo unspecified)
 : 0.5	0.65	1	x	-0.3	1.9	3
> Cc1ccc(-n2c(-c3ccc(Cl)cc3)n[nH]c2=S)cc1
 : 2.3	0.69	14	i	-2.9	-4.3	-1
> COC(=O)CSc1[nH]c2ccc(Br)cc2c1[N+](=O)[O-]
 : 3.4	0.72	1	i	-6.3	-0.4	-14
> COc1ccccc1C(=O)NC(CCSC)C(=O)NCC(c1ccccc1OC)N1CCCC1 (stereo unspecified)
 : 3.1	0.67	-6	i	-1.2	-0.1	4
> O=C(NN1CCOCC1)c1cc(-c2cccc(Cl)c2)nc2ccccc12
 : 1.2	0.73	-6	i	-2.9	0.2	-2
> COc1ccc(Cl)cc1C(=O)NNC(=O)c1cccs1
 : 0.7	0.7	4	i	5.2	2.0	-5
> CCOC(=O)N1CCN(c2nc3c(C)cccn3c(=O)c2C=O)CC1
 : -0.1	0.61	5	i	2.9	-6.3	-15
> Cc1cccc(NC(=O)N2CCC(c3nc4ccccc4o3)CC2)c1
 : 1.3	0.72	5	x	-4.9	0.2	-2
> COc1cccc(CN2CCN(C(=O)c3ccco3)CC2)c1
 : 0.3	0.66	-8	i	3.4	0.4	-7
> Cc1ccccc1NCC(=O)N/N=C/C(Br)=C/c1ccccc1
 : x	x	-2	x	-4.6	-1.5	4
> O=C(c1c[nH]c2ccc(S(=O)(=O)N3CCOCC3)cc2c1=O)N1CCCC1
 : -6.2	0.73	-4	x	0.4	-1.8	-6
> COc1cc(SC)ccc1C(=O)Nc1c(C)cccc1C
 : 0.7	0.71	2	i	-0.2	0.7	x
> COc1ccc(OC)c(-c2c3cc(O)c(=O)cc-3oc3cc(O)c(O)cc23)c1
 : x	x	-217	x	x	-18	80*
> CNC(=S)NNC(=O)c1cc(C(C)(C)C)nn1Cc1ccc(F)cc1
 : 0.8	0.65	3	i	0.6	2.6	50
> Cc1cccc(-n2c(N)c(C(=O)N3CCN(C)CC3)sc2=S)c1
 : -0.5	0.74	5	x	6.9	-0.5	17
> CCN1CCN(C(CNS(=O)(=O)c2ccc(C)cc2)c2ccccc2)CC1 (stereo unspecified)
 : 3.8	0.71	0	i	x	4.3	x
> Cc1ccc(C(=O)OCc2cn3ccccc3n2)cc1
 : -0.1	0.7	0	x	-1.3	2.0	-9
> C[C@H](NC(=O)c1ccccc1Cl)C(=O)OCC(=O)N1CC2(C)CC1CC(C)(C)C2 (stereo partly specified)
 : 1.6	x	1	i	3.9	-0.2	0
> COc1cccc(OC)c1C(=O)Nc1sc2c(c1C(N)=O)CCCC2
 : -4.3	0.65	-1	i	-6.1	2.2	-7
> Oc1ccc(C=NNc2ccccn2)c(O)c1
 : x	x	7	i	x	5.5	x
> C=CCN(CC=C)CCOc1ccc(C)cc1[N+](=O)[O-]
 : 6.5	0.67	-3	i	-1.4	-0.8	-2
> CC(O)CNc1nc2c(c(=O)n(C)c(=O)n2C)n1Cc1cccc(C(F)(F)F)c1 (stereo unspecified)
 : 2.9	0.67	-3	x	3.2	1.7	x
> O=C(Cc1n[nH]c(=O)c2ccccc12)NCc1ccccc1
 : -3.4	0.68	-1	i	3.8	-1.3	2
> Nc1nnc(CSCc2ccc(Cl)cc2Cl)s1
 : 0.6	0.68	6	i	-3.4	-5.1	11
> Cc1ccc(NC(=O)CNc2ccc(N3CCOCC3)cc2)cc1S(=O)(=O)N(C)C
 : 4.1	0.72	-1	i	-4.1	0.2	11
> Cc1cc(C(=O)Oc2cccnc2)ccc1[N+](=O)[O-]
 : 6.1	0.72	7	i	1.2	2.4	19
> CC(C(=O)NC1C(=O)N2C(C(=O)O)=C(CSc3nnnn3C)CSC12)n1cc(Br)cn1 (stereo unspecified)
 : 4.6	0.51*	2	i	5.0	-3.6	2
> O=C(CSc1nnc2nnc3ccccc3n12)N1CCOCC1
 : 1.1	0.66	-2	i	7.0	-5.8	-13
> CCOC(=O)c1cc(C)n(Cc2cccc(OC)c2OC)c1C
 : -0.4	0.73	-10	x	2.4	-0.2	x
> O=C(COC(=O)Cn1cc(C(F)(F)F)ccc1=O)NCc1ccccc1
 : 2.1	0.68	-2	i	x	-0.3	x
> O=S1(=O)C[C@@H](O)[C@@H](Nc2ccccc2)C1
 : 1.7	0.7	-3	i	-7.4	5.0	21
> Cc1ccccc1N(CC(=O)N1CCCC1)S(=O)(=O)c1ccc(Cl)cc1
 : 5.2	0.68	3	i	2.5	-2.2	x
> CCCCC(CCC(=O)O)(C(=O)OCC)c1csc(N)n1 (stereo unspecified)
 : -4.2	0.75	-6	x	-4.1	-0.3	0
> OCCC1CN(Cc2c(F)cccc2Cl)CCN1C1CCCCC1 (stereo unspecified)
 : 2.1	0.66	-2	i	-3.2	-0.9	x
> O=C(N/N=C/c1ccc([N+](=O)[O-])cc1)c1c[nH]c2ccccc12
 : x	x	1	+	4.5	5.8	-1
> COc1ccc(/C=N/NC(=O)c2nnn(-c3nonc3N)c2CN(C)C2CCCCC2)cc1
 : x	x	-6	i	-5.4	1.8	4
> Cc1ccc(S(=O)(=O)N2CCCCC2)cc1C(=O)N(CCc1ccccc1)Cc1ccccc1
 : 1.3	0.68	13	i	-1.9	1.4	x
> O=C1C2C3C=CC(C3=C(c3ccccc3)c3ccccc3)C2C(=O)N1CCO (stereo unspecified)
 : 1.5	0.63	10	x	-5.6	0.4	x
> CCOc1ccc(S(=O)(=O)NCCC(=O)NCc2ccc(OC)c(OC)c2)cc1
 : 0.1	0.66	-3	i	1.0	0.9	1
> COc1ccc([N+](=O)[O-])cc1NS(=O)(=O)c1cccc(C(=O)O)c1
 : 3.9	0.65	-6	i	1.2	-1.7	7
> CC(C(=O)Nc1ccc(S(=O)(=O)Nc2ncccn2)cc1)N1C(=O)c2ccccc2S1(=O)=O (stereo unspecified)
 : 1.9	0.63	0	i	-2.9	-6.6	-5
> Cc1ccc(C(=O)NCc2ccncc2)cc1S(=O)(=O)N1CCOCC1
 : 1.9	0.7	-1	i	4.5	4.7	-18
> Cc1ccc(-n2nnc3c(SCC(=O)NCc4ccco4)ncnc32)cc1
 : 1.7	0.7	13	x	-11	-2.8	3
> COc1cccc(S(=O)(=O)NC2CCN(C#N)C2)c1 (stereo unspecified)
 : 2.7	0.7	0	i	4.5	0.2	3
> CC1C2CC(C/C2=N/NC(=O)c2cccs2)C1(C)C (stereo unspecified)
 : x	x	-5	x	-3.8	0.6	-9
> NS(=O)(=O)c1ccc(CCNC(=O)Cc2ccc(S(=O)(=O)N3CCCC3)s2)cc1
 : 5.2	0.69	2	i	-0.5	2.2	-7
> CN(C)CCn1c(=S)[nH]c2ccc(Cl)cc2c1=O
 : 1.3	0.7	-18	i	-1.6	-2.9	14
> ONC(=Nc1cccc(C(F)(F)F)c1)c1cccnc1
 : 2.5	0.61	-7	i	-3.1	-2.1	32
> Cc1cc(C)n2cc(CSc3nnc(-c4ccccc4)o3)nc2n1
 : -2.0	0.72	17	x	10	-1.8	-2
> Cc1nc(-c2ccc(S(=O)(=O)Oc3ccc(Cl)cc3Cl)s2)cs1
 : 2.0	0.68	-1	i	-2.6	-3.5	0
> COc1ccccc1CNC(=O)c1sccc1-c1ccccc1
 : 1.3	0.69	1	i	3.5	-1.6	x

Additional results:
Every second line gives: UCH37 DUB inh	E coli growth	B2AR ag	FGF22 binding	LANA-H2B inh	HNF4A DNA FP	ALR inh
> COCc1nnc(NS(=O)(=O)c2ccc(C)cc2)s1
 : 2.6	0.68	-1	x	1.0	-1.1	x
> COc1ccc(NC(=S)N(Cc2cccc(Br)c2)CC2CCC(C(=O)O)CC2)cc1 (stereo unspecified)
 : 0.7	0.66	2	x	5.3	-0.8	2
> CCOC(=O)C1=C(C)Nc2nc3ccccc3n2C1c1ccc(O)cc1 (stereo unspecified)
 : -7.0	0.69	-6	i	-1.9	10	x
> Cc1ccc(C(=O)CCC(=O)Nc2ncccc2C)cc1
 : 0.8	0.61	4	i	-0.1	-0.9	17
> O=C(COC(=O)Cc1ccc(F)cc1)NC(=O)c1ccccc1
 : 5.8	0.69	-5	i	0.5	3.1	-3
> S=c1[nH]nc(-c2cccc3ccccc23)n1-c1cccnc1
 : 1.0	0.63	-2	i	1.0	4.0	91*
> Cc1ccc(C)c(NC2=C(Cl)C(=O)OC2OC(=O)c2ccco2)c1 (stereo unspecified)
 : 5.0	0.68	-7	i	0.6	-3.2	27
> O=C(Cc1cccs1)N1CCN=C1SCc1cccc(F)c1
 : 1.1	0.69	-9	i	5.5	2.9	u
> Cc1csc(C(=O)NCC(=O)NNC(=O)c2cccc(Cl)c2)c1
 : 2.2	0.67	-5	i	1.4	-1.4	-3
> CCn1nc(CC(C)C)cc1C(=O)N1CCCC(Nc2ccc(F)cc2)C1 (stereo unspecified)
 : 3.1	0.71	1	i	8.4	0.4	60
> C[C@H]1CN([C@@H](C)CO)C(=O)Cc2cc(NC(=O)Cn3cnnn3)ccc2O[C@H]1CN(C)Cc1ccncc1
 : 1.5	0.73	-4	i	-1.2	2.4	x
> Cc1cccc(NC(=O)c2cc(Cl)ccc2[N+](=O)[O-])c1
 : 1.1	0.67	-4	x	5.7	20	-2
> C=CCn1c(COc2ccc(F)cc2)nnc1SCC(=O)NC1CCCC1
 : 2.9	0.69	-1	i	-3.7	1.1	2
> CCOc1ccc(S(=O)(=O)N2CCN(C(=O)C3CCC3)CC2)cc1
 : -0.3	0.7	-4	i	1.8	1.0	-15
> O=C(Nc1ccc2c(c1)OCO2)C1CCCN1C(=O)Nc1ccccc1F (stereo unspecified)
 : 1.7	0.7	-3	x	2.4	0.8	-3
> COc1ccc(C2C(C(=O)N3CCCCC3)CCC(=O)N2c2cc(OC)c(OC)c(OC)c2)cc1 (stereo unspecified)
 : 5.1	0.69	0	x	-0.6	1.2	22
> O=C(NCCc1ccccc1)c1cccc(NC(=O)C2CCCC2)c1
 : x	x	-10	x	x	0.2	x
> O=C(CCCl)Nc1ccc(S(=O)(=O)NCc2ccco2)cc1
 : -0.1	0.72	0	i	-4.6	-4.5	x
> Cc1onc(-c2ccccc2Cl)c1C(=O)NCCN1CCOCC1
 : -0.2	0.79	-1	x	0.4	2.3	-5
> Cc1ccc(C(=O)CSc2nnc(-c3ccccc3)n2-c2ccccc2)o1
 : 4.1	0.74	-6	x	0.2	-2.4	x

Some of these compounds in order of length of the SMILES, descending.
Every second line gives: UCH37 DUB inh	E coli growth	B2AR ag	FGF22 binding	LANA-H2B inh	HNF4A DNA FP	ALR inh
> Cc1ccc(C(=O)CSc2nnc(-c3ccccc3)n2-c2ccccc2)o1
 : 4.1	0.74	-6	x	0.2	-2.4	x
> O=C(NCCc1ccccc1)c1cccc(NC(=O)C2CCCC2)c1
 : x	x	-10	x	x	0.2	x
> O=C(COC(=O)Cc1ccc(F)cc1)NC(=O)c1ccccc1
 : 5.8	0.69	-5	i	0.5	3.1	-3

This is a subset (hit frequency here may not be typical).
